Compound activity: PubChem BioAssay, several laboratories
Mtb hypoxia rep = PubChem AID 1159583. hit rate 0.1% among 300,000. M. tuberculosis hypoxia-regulated fluorescent reporter, fluorescence. fluorescence inhibition, % (test concentration not listed);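 active = 35 to 45% if threefold the growth effect, above 45% if 1.5-fold the growth effect; inactive = the rest, general growth blockers included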;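 also: wells of about 50 µL received 100 nL stock; 0% = vehicle wells and 100% = reference inhibitor wells; whole bacteria with a GFP reporter of the hypoxia response; strong numbers were not always called active; many hits fall short of the cut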
Autofluor counter = flagged as autofluorescent in microsphere protease counterscreen; fluorescence intensity (test concentration not listed); hit rate 3.1% among 360,000; compound autofluorescence counterscreen, microsphere flow cytometry; stronger effect = higher value; AID 624483;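 active = at least 3 SD above the mean of all compounds, about 16000 in these data; inconclusive = too few beads counted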;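 also: 100 nL of 1 mM stock went into each well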
RN4220 kill = growth inhibition of S. aureus RN4220, primary screen, OD600; 16 h; inhibition, % (no concentration beside the values); hit rate 0.33% among 330,000; AID 1259311, 2017;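 active = z-score of -3 or lower and OD600 up to 0.18 on both plates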;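 also: plate controls were untreated cells for no effect and reference antibiotic for full effect; stock transfer was 100 nL into about 80 µL; one replicate is shown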
PrP 5UTR inh = inhibition of PrP 5' UTR reporter expression; cell-based PrP 5' UTR mRNA reporter, plate reader; inhibition, % (test concentration not listed); hit rate 0.35% among 340,000;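 active = every replicate at 50% or more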;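 also: 0 = median of the neutral control wells; tested in H4 reporter cells; numbers are from one replicate; inactives centre near -14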
BJeLR lethal = MLPCN primary cell-based screen for lethality selective to Ras in HRASV12 cells | BJeLR (HRASV12) viability, CellTiter-Glo ATP luminescence, 48 h; reference of the scale not given here | inhibition, % (no concentration beside the values) | hit rate 0.17% among 300,000;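 active = replicate mean above 50%; inconclusive = above 50% but judged a plate artefact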;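 also: 50 nL library stock added to about 25 µL; numbers are from one replicate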
ugtP null kill = growth inhibition of ugtP-null S. aureus, primary screen, RN4220 ugtP deletion, OD600; 16 h; some inactives read as strong as hits; growth inhibition, % (test concentration not listed); hit rate 0.54% among 330,000;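 active = z-score under -3 and OD600 up to 0.15 on both plates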;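 also: plate controls were untreated wells for no effect and antibiotic for full effect; wells of about 80 µL received 100 nL stock; the first replicate is given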
Mtb hypoxia rep growth = second read-out of Mtb hypoxia rep, no call of its own (marks repeat the call); growth inhibition, %; measured here: M. tuberculosis growth (absorbance);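 0% = vehicle and 100% = reference antibiotic; read after six days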
An asterisk follows results filed as active; ? = inconclusive; · = no result given. Rows were taken by chance; about 4% have a hit in one of these screens.

SMILES	Mtb hypoxia rep	Mtb hypoxia rep growth	Autofluor counter	RN4220 kill	PrP 5UTR inh	BJeLR lethal	ugtP null kill
COc1ccc(Cl)cc1NC(=O)C/C(C)=N/NC(=O)C(=O)NCc1ccccc1	·	·	5989	·	-11	5	·
O=[N+]([O-])c1cccc(-c2nc(-c3ccccc3)c(-c3cccs3)[nH]2)c1	2	8	2499	-22	-13	7	-3
CC(NC(=O)CCC(=O)NC(C)c1ccccc1)c1ccccc1 (stereo not drawn)	2	-3	3204	2.7	4	-13	12
O=C(c1ccc2c(=O)n(CCc3ccccc3)c(=O)[nH]c2c1)N1CCN(c2ccccc2)CC1	-5	1	3518	0.7	-21	-3	1
COc1ccc(CCN(Cc2nc(-c3ccccc3)no2)Cc2nc(-c3ccccc3)no2)cc1OC	·	·	4886	0.7	-15	13	11
O=C(NCc1ccccn1)c1ccc(OC2CCN(Cc3ccccc3)CC2)cc1	-1	6	6736	-0.5	-9	0	-1
COc1ccc(S(=O)(=O)N(CC(=O)O)c2ccccn2)cc1	1	2	4065	8.6	-35	-4	5
COc1ccc(Cl)cc1NC(=O)/C=C\C(=O)O	14	8	10895	8.1	70*	-5	2
Cc1c(C#N)c(N=CN(C)C)c(C(=O)c2ccccc2)n1-c1ccc(Br)cc1	-6	6	7112	-3.2	-48	-1	0
Cc1cc(C)cc(C(=O)NN2CCN(C)CC2)c1	7	4	1988	3.1	-6	2	6
Cc1ccc(C)c(NC(=S)NNC(=O)c2csc(C)c2)c1	0	-5	2123	3.4	-30	-2	8
N/C(=N\N=Cc1ccco1)SC1CC(=O)N(c2ccccc2)C1=O (stereo not drawn)	11	14	·	7.2	·	·	3
O=C(NCCc1ccc(Cl)cc1)Nc1cccc(Cl)c1	6	12	2522	-8.6	-7	4	-34
O=C1/C(=C/c2ccncc2)N=C2CCCCCN12	7	9	4689	2.3	-9	-2	2
Cc1cc(Cl)ccc1OCC(=O)NC1CCCC1	6	15	10079	-3.9	-1	-10	-3
CCn1cc(Br)c(C(=O)Nc2ccc(C(=O)OC(C)C)cc2)n1	5	3	9066	-0.6	-30	-9	4
O=C(CSCc1ccc(Cl)cc1)Nc1nccs1	2	7	13646	7.2	-23	0	5
O=C(c1ccc(C#CC2(O)CCCCC2)cc1)N1CCOCC1	0	2	5791	8.0	-24	-2	0
CCOC(=O)C1CCCN(C(=S)Nc2ccc(Nc3ccccc3)cc2)C1 (stereo not drawn)	9	8	3346	3.1	-29	0	3
O=C(Nc1ccccc1)N1CCCC2CCCCC21 (stereo not drawn)	·	·	3341	2.0	-48	1	1
CCOC(=O)c1c(C)n(Cc2ccc(F)cc2)c2ccc(O)cc12	3	-3	5218	6.1	-10	-2	5
CC(C)(C)[C@@H]1C=C(C(=O)N2CCOCC2)O[C@H](OCc2ccc(CO)cc2)C1	·	·	3668	·	-7	7	·
O=c1oc2ccccc2c(Nc2ccc(Cl)cc2)c1[N+](=O)[O-]	-7	-3	6095	13	-11	-5	3
Cn1c(CCCNC(=O)c2ccccc2)nc2ccccc21	9	13	4167	2.3	-20	-13	-1
CC(C(=O)OCC(=O)c1c(N)n(C)c(=O)n(C)c1=O)N1C(=O)c2ccccc2C1=O (stereo not drawn)	5	-2	9725	1.6	-15	19	-1

The list goes on.
SMILES	Mtb hypoxia rep	Mtb hypoxia rep growth	Autofluor counter	RN4220 kill	PrP 5UTR inh	BJeLR lethal	ugtP null kill
Cc1ccc(S(=O)(=O)N2CCN(C(=O)CC(C)n3cncn3)CC2)cc1C (stereo not drawn)	8	10	5204	1.9	-8	2	7
Cn1c(=O)oc2cc(S(=O)(=O)N3CCN(C(=O)c4ccco4)CC3)ccc21	7	6	9962	0.9	-3	0	-5
COCC(C)n1c(SCc2cc(=O)n3cc(C)ccc3n2)nc2ccccc2c1=O (stereo not drawn)	14	10	4180	2.1	-21	-17	10
COc1ccc(CNC(C)Cc2cccs2)cc1 (stereo not drawn)	-10	5	4518	5.9	-8	-3	7
O=C(NC1CCCC1)c1nc2c(nnn2Cc2ccccc2Cl)c(=O)[nH]1	7	8	6214	15	-28	-1	-13
CCCCN(Cc1ccco1)S(=O)(=O)c1ccc(-c2ccc(=O)[nH]n2)s1	-3	-9	4787	3.4	-11	-6	-4
Nc1nn(S(=O)(=O)c2cccc3nsnc23)cc1-c1ccc(Br)cc1	·	·	4290	-5.8	-18	5	6
Cc1occc(=O)c1OCc1ccccc1	9	0	4759	5.5	-20	7	7
CCCCN(C(=O)COC(=O)c1nc2nccc(C)n2n1)C1CCS(=O)(=O)C1 (stereo not drawn)	5	-4	8220	1.9	-8	·	-2
CCOC(=O)c1nn(-c2cccc(Cl)c2)c2nc(CC(C)C)c(C#N)c(=O)n12	11	5	10003	4.5	-17	-2	-5
N#Cc1ccc(Oc2cnccn2)cc1	2	8	3645	-0.1	-4	-2	16
COCc1cc(C)nc2sc(C(=O)N3CCN(c4ccccc4)CC3)c(N)c12	1	9	4742	5.2	1	-12	8
COc1ccccc1-n1c(O)c(/C=N/NC(=S)Nc2ccccc2)c(=O)[nH]c1=S	0	-8	·	-0.9	-24	-5	-3
CCSC(=S)Nc1c(C)n(C)n(-c2ccccc2)c1=O	5	0	4526	4.5	-10	-5	3
COc1cccc(-c2csc(N3CCN(S(=O)(=O)c4ccc(F)cc4)CC3)n2)c1	2	11	21656*	11	9	2	-12
CCN(CC(=O)Nc1c(F)cccc1F)C(=O)c1ccc2c(=O)n3c(nc2c1)CCC3	4	-2	6141	4.0	-27	·	5
CCOC(=O)CN1C(=O)COc2ccc(Cl)cc21	3	0	8309	2.1	-49	-3	4
CCCc1cc(=O)[nH]c2nnc(SCC(=O)Nc3cc(C)on3)n12	13	-1	6201	6.7	-9	-6	5
CCOC(=O)NC(=O)/C(C#N)=N\Nc1cccc(Cl)c1	·	·	5235	·	-19	2	·
CCOc1cc(/C=N\O)cc(Cl)c1OCC	·	·	3068	·	-9	-6	·
NC(=O)c1cc(S(=O)(=O)Nc2cccc(Cl)c2)cs1	2	5	3350	7.1	-20	-6	11
Cc1nc(C)c(C(=O)OCC(=O)Nc2cccc(C)c2C)s1	6	7	3820	2.5	-17	·	4
COc1cc2[nH]c(=S)nc(NCCCOC(C)C)c2cc1OC	3	12	3682	3.9	-24	-14	9
Cc1ccc(COC(=O)c2ccc3c(c2)C(=O)N(CCCN2CCOCC2)C3=O)cc1	-19	-2	3265	3.0	-18	1	-7
O=C1CSC(c2c(F)cccc2Cl)N1c1cccc(F)c1 (stereo not drawn)	22	4	4122	6.6	-24	-4	14

(further entries)
SMILES	Mtb hypoxia rep	Mtb hypoxia rep growth	Autofluor counter	RN4220 kill	PrP 5UTR inh	BJeLR lethal	ugtP null kill
CCn1c(SC(C)C(=O)Nc2nnc(C)s2)nnc1-c1ccco1 (stereo not drawn)	-6	-3	5330	2.6	-15	-10	6
COc1ccc(/C=C/C(=O)Oc2ccc(C=O)cc2OC)cc1	-5	2	6169	3.0	-23	-8	12
CC(C)Sc1nc2sc(-c3ccccc3)cc2c(=O)n1N	8	-2	3365	6.8	-20	·	-13
O=C(NCc1ccc2c(c1)OCO2)C1CCCN(S(=O)(=O)c2cccs2)C1 (stereo not drawn)	5	2	5654	-2.7	3	0	11
COc1ccc(C(=O)Nc2ccc(C(=O)NCC3CCCO3)cc2)c(OC)c1OC (stereo not drawn)	12	-2	4483	5.1	-8	-7	13
Cc1cc(Nc2ccc(O)cc2)n2c(nc3ccccc32)c1C#N	-1	7	3318	-3.1	-31	-4	1
COc1ccc(OCC(=O)Nc2nnc(C)s2)cc1	·	·	2797	1.8	-6	-2	-1
Cc1ccccc1-n1ccnc1SCC(=O)NCC1CCCO1 (stereo not drawn)	11	14	5092	4.9	-11	-6	0
O=C(CCC1CCCN(C(=O)c2ccoc2)C1)NCc1ccccc1F (stereo not drawn)	12	6	3891	6.7	-35	-2	6
Cn1c(SC2CCCCC2=O)nnc1-c1ccccc1F (stereo not drawn)	6	0	4075	-0.7	-6	2	-2
CN(CC(=O)Nc1ccc(F)c(F)c1F)C(=O)C1CSC2(C)CCC(=O)N12 (stereo not drawn)	4	9	?	-1.3	-21	·	-2
COc1ccc(NC(=O)c2sc3nc(Cc4ccccc4)cc(C(F)(F)F)c3c2N)cc1OC	1	1	2000	3.9	-1	10	-4
O=C(Nc1cccc(Cl)c1)N(Cc1nc2ccccc2c(=O)[nH]1)Cc1cccs1	1	2	8771	36	-17	-12	-4
CC1CN(C)CCC1OC(=O)c1ccccc1 (stereo not drawn)	6	-1	2869	1.3	0	-4	13
COCCN1C(=O)N[C@@H](c2cccs2)C(C(C)=O)=C1C	·	·	3751	·	-16	2	·
Cc1cnn(C(=O)c2oc3ccccc3c2C)c1	-15	0	22067*	1.0	-29	-5	1
CC(C)n1cc(NC(=O)C2CC(c3cccc(Br)c3)=NO2)cn1 (stereo not drawn)	·	·	2271	-3.2	-5	6	3
C=CCn1cc(C(=O)NCCCN(CC)CC)c(=O)c2cc(S(=O)(=O)N3CCC(C)CC3)ccc21	9	7	5331	2.2	-11	8	9
COc1ccc(-n2nc(C(=O)O)c3ccccc3c2=O)c(OC)c1	12	3	9895	1.3	-9	3	2
CNC(=O)CSc1cn(CC(=O)N(C(C)C)C(C)C)c2ccccc12	6	8	5245	0.8	-16	3	1
Cc1cccc(-c2nc3ccc(C(=O)N4CCC5(CC4)OCCO5)cc3nc2-c2cccc(C)c2)c1	-2	1	4311	2.3	0	5	0
O=C(Nc1nnc(-c2ccc(Br)cc2)o1)C1=COCCO1	5	2	6075	2.2	-25	7	3
Fc1ccc(-c2nnc(CSc3nnc4ccccn34)o2)cc1	6	9	9835	4.9	-10	-5	-1
c1ccc(-c2nn3c(-c4ccccc4)nnc3s2)cc1	4	5	9758	8.2	-17	2	-9
CC(C)c1ccc(SCc2noc(C(=O)NCC3CCCO3)c2C(=O)O)cc1 (stereo not drawn)	1	-3	3005	12	-23	1	9

Of the compounds above, 2 have a nitro group on carbon.
SMILES	Mtb hypoxia rep	Mtb hypoxia rep growth	Autofluor counter	RN4220 kill	PrP 5UTR inh	BJeLR lethal	ugtP null kill
O=[N+]([O-])c1cccc(-c2nc(-c3ccccc3)c(-c3cccs3)[nH]2)c1	2	8	2499	-22	-13	7	-3
O=c1oc2ccccc2c(Nc2ccc(Cl)cc2)c1[N+](=O)[O-]	-7	-3	6095	13	-11	-5	3

As entered above:
For Mtb hypoxia rep, CC(C)c1ccc(SCc2noc(C(=O)NCC3CCCO3)c2C(=O)O)cc1 (stereo not drawn) is listed with 1
For Mtb hypoxia rep, CN(CC(=O)Nc1ccc(F)c(F)c1F)C(=O)C1CSC2(C)CCC(=O)N12 (stereo not drawn) is listed with 4
For ugtP null kill, COc1ccc(/C=C/C(=O)Oc2ccc(C=O)cc2OC)cc1 is listed with 12
For RN4220 kill, CC(C)Sc1nc2sc(-c3ccccc3)cc2c(=O)n1N is listed with 6.8
For Autofluor counter, Cc1ccccc1-n1ccnc1SCC(=O)NCC1CCCO1 (stereo not drawn) is listed with 5092
For Mtb hypoxia rep growth, CNC(=O)CSc1cn(CC(=O)N(C(C)C)C(C)C)c2ccccc12 is listed with 8

Next section
SMILES	Mtb hypoxia rep	Mtb hypoxia rep growth	Autofluor counter	RN4220 kill	PrP 5UTR inh	BJeLR lethal	ugtP null kill
CN(C)/C=C(/C(=O)c1ccccc1Cl)S(C)(=O)=O	0	-7	2143	2.0	-28	·	0
COc1ccc(C2CC(C)(c3ccc(OC)cc3)Nc3ccccc3N2)cc1 (stereo not drawn)	-11	2	3884	9.1	-22	15	9
COc1ccc(Nc2c3c(nc4ccc(C)cc24)CCC3)cc1	4	9	3435	0.8	-3	-3	8
COc1cc(NC(=O)CCN2C(=O)NC3(CCCC3)C2=O)c(OC)cc1Cl	3	0	9139	4.3	-13	·	5
O=C(CCCSc1nc2ccccc2[nH]1)Nc1ccccc1	0	5	2098	7.5	8	2	4
Cc1ccc(C(=O)OCC(=O)NCc2ccco2)cc1	7	7	3989	3.7	-13	3	5
COC(=O)COc1ccc(S(=O)(=O)NCc2ccncc2)cc1	11	7	8121	1.9	-15	-6	-2
Cc1ccc(S(=O)(=O)N2CCC(C(=O)NNC(=O)c3ccccc3O)CC2)cc1	10	-2	?	3.6	7	7	-3
OCCOCCn1c(C2CCCN2c2nc(-c3ccc(F)cc3)cs2)nc2cc(C(F)(F)F)ccc21 (stereo not drawn)	-1	0	3113	-5.4	-6	0	-5
O=C(NC(=S)Nc1ccccc1C(=O)O)c1cncc(Br)c1	13	11	3778	2.1	-23	-2	9
